Bioassay records deposited in PubChem by several laboratories.
BCLXL inh = blocks human Bcl-xL binding to Bim BH3 peptide; Q07817; GST-Bcl-xL / FITC-Bim BH3 peptide fluorescence polarization; inhibition, % at 10.9 µM; 320,000 compounds, 0.7% hits; AID 2129;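 active = inhibition above the mean of all tested compounds plus 3 SD, cutoff set per campaign, cut at about 30% in these data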;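 also: 0% = DMSO wells and 100% = unlabeled Bim-BH3 peptide competitor; inhibitors lower millipolarization by displacing the labeled peptide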
Target sequence (Q07817 whole entry, looked up): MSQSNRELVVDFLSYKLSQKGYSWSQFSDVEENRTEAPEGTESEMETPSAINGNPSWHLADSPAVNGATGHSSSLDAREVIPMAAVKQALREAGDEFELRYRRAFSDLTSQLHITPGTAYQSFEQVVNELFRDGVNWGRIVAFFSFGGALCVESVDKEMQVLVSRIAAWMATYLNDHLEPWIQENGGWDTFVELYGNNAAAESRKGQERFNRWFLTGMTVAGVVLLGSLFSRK
GLD-1 RNA inh = GLD-1-TGE RNA interaction inhibition (C. elegans); 320,000 compounds, 0.44% hits; Q17339; purified GLD-1 + fluorescein TGE RNA, fluorescence polarization; inhibition, % at 5.96 µM;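 active = percent inhibition above a per-plate cutoff, the plate mean of test compounds plus 3 SD, cut at about 30% in these data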;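 also: 0% = DMSO wells with GLD-1 and probe and 100% = wells lacking GLD-1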
Target sequence (Q17339 whole entry, looked up): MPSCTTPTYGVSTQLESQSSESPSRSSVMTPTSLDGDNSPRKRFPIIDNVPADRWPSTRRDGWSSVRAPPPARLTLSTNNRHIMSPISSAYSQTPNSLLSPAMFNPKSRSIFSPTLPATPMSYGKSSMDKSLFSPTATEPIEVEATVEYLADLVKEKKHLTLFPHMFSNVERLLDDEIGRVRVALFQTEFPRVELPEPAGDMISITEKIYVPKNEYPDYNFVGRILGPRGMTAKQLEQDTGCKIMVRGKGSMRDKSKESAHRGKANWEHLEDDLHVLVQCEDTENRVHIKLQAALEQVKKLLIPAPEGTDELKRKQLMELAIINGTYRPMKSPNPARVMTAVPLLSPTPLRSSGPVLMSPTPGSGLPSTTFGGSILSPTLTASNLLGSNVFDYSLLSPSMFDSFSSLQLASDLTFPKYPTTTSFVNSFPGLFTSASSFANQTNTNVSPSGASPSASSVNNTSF
PME-1 inh = blocks human protein phosphatase methylesterase 1 | Q9Y570 | recombinant PME-1, FP-Rh probe fluorescence polarization | inhibition, % at 5.9 µM | 320,000 compounds, 0.53% hits;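 active = inhibition above the campaign mean of all compounds plus 3 SD, cut at about 26% in these data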;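 also: competitive labeling of PME-1 active site by serine hydrolase directed probe; 0% = PME-1 with DMSO and 100% = wells lacking PME-1 enzyme; inhibitors block probe labeling so polarization falls and inhibition rises; many of its hits are not listed in these tables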
AHR act = activators of human aryl hydrocarbon receptor | P35869 | AHR-responsive luciferase reporter cells, luminescence | activation, % at 5 µM | 320,000 compounds, 2.5% hits | AID 2796; in the data active = activation above about 47%;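 also: 0% = vehicle wells and 100% = reference agonist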
MEX-5 binding = C. elegans MEX-5 TCR-2 RNA binding activity; MEX-5/FITC-TCR2 RNA binding, fluorescence polarization; active compounds read low; activity score (negative = inhibition of binding), % at 10 µM; 300,000 compounds, 0.38% hits; AID 1832;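 active = inhibition past about -25% in most replicates, and total fluorescence under double the plate's negative control median, limit read from the data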;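 also: 0% = DMSO and -100% = 5 µM competing unlabeled TCR2 RNA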
MCL1-BIM inh = MCL1-BIM-BH3 interaction inhibition (human); inhibition, % at 10.9 µM; Q07820; 320,000 compounds, 0.68% hits; GST-MCL1 / FITC-Bim-BH3 fluorescence polarization;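 active = inhibition above the mean inhibition of all tested compounds plus 3 SD, set per campaign, cut at about 40% in these data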;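 also: 0% = DMSO wells and 100% = unlabeled Bim-BH3 peptide control; higher means more loss of mP so more displacement of Bim peptide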
Target sequence (Q07820 whole entry, looked up): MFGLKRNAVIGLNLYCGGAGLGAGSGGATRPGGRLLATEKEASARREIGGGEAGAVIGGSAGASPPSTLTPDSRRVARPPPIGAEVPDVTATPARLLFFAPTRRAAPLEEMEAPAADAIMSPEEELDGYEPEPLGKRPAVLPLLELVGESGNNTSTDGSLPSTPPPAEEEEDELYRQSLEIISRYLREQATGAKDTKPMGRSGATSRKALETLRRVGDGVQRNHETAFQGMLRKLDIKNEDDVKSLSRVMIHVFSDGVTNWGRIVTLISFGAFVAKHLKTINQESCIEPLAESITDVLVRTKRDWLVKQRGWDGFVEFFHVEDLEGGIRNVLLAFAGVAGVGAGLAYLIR
Fam108B inh = blocks mouse Fam108B hydrolase in RBBP9 counter-screen | 300,000 compounds, 0.33% hits | inhibition, % at 9.51 µM | recombinant Fam108B, FP-Rh probe fluorescence polarization;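 active = inhibition above the screen mean inhibition plus 3 SD, computed separately per campaign, cut at about 18% in these data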;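 also: inhibitors lower polarization as less probe binds the enzyme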
The depositor's hits bear a star; . = no result given. This is a subset. The share of hits here may be higher or lower than overall.

SMILES	BCLXL inh	GLD-1 RNA inh	PME-1 inh	AHR act	MEX-5 binding	MCL1-BIM inh	Fam108B inh
O=C(Nc1cccc(S(=O)(=O)NC2=NCCCCC2)c1)c1cccnc1Cl	-7	8	-8	0	0.1	-9	-1
O=S(=O)(/C=C/c1ccccc1)N1CCN(c2ccccc2)CC1	9	0	1	4	-1.5	5	0
Cn1c(CCNC(=O)c2ccccc2F)nnc1SCC(=O)Nc1nncs1	4	-1	2	0	0.2	3	1
COC(=O)[C@H](CC(C)C)NS(=O)(=O)N(Cc1ccccc1)[C@@H](CC(C)C)C(=O)OC	1	0	3	-1	.	1	.
C1CN(c2nc3nonc3n3nnnc23)CCO1	4	7	3	-2	-2.0	2	-3
O=C(Cn1c(=O)n(Cc2ccco2)c(=O)c2ccccc21)Nc1cccc(Cl)c1	2	4	-15	2	-0.8	-3	-6
CC(C)C(=O)Nc1cccc(C(=O)NCc2ccc(S(N)(=O)=O)cc2)c1	9	4	1	4	-0.4	11	1
CCOCCCNC(=O)c1ccccc1Br	-3	-1	-3	12	0.7	0	5
c1cncc(CNc2cccc(-c3nc4ccccc4[nH]3)c2)c1	0	2	9	167*	-0.9	2	2
CC(C)Cn1c(NCCN(C)C)nc2c1c(=O)[nH]c(=O)n2C	3	4	-1	-6	-0.3	-1	-1
CCOC(=O)c1sc2c(c1C)c(=O)n(CCO)c(=O)n2Cc1ccccc1	7	-8	7	-1	2.7	12	3
O=C(Nc1cccc(C(F)(F)F)c1)NC1CCN(S(=O)(=O)c2ccc(F)cc2)CC1	3	6	-7	3	1.3	-2	4
CCC/C(O)=C1\C(=O)CC(C)(C)CC1=Nc1cccc([N+](=O)[O-])c1	0	-7	-2	0	-2.0	-4	-1
CCOC(=O)N1CCN(C(=O)c2cc(-c3ccc(OCC)cc3)nc3ccccc23)CC1	-5	3	0	25	1.8	-3	3
O=C(NN=Cc1c(F)c(F)c(F)c(F)c1F)c1ccc(NS(=O)(=O)c2cccs2)cc1	.	-5	.	1	.	.	.
Cc1cccc(S(=O)(=O)NCCC(=O)OC(C)C(=O)NC(=O)NC2CCCCC2)c1 (configuration not stated)	4	2	1	2	0.4	-2	-2
Cc1ccccc1Cn1c(=O)n(Cc2ccco2)c(=O)c2ccccc21	7	2	1	-2	1.2	19	-4
CCC(=O)Nc1ccc(-c2nn3c(C)nnc3s2)cc1C	4	-7	-2	54*	1.5	4	3
CC(C)c1cc(=O)n2[nH]c(SCc3ccc(Cl)cc3)nc2n1	5	-21	-13	2	0.9	4	-2
C=CCN1CCN(C(=O)c2ccc3c(c2)OCO3)CC1	1	0	2	-1	0.3	2	0
CC(C)c1c(O)nc(SCCN(C)C)[nH]c1=O	5	-6	8	1	0.4	2	2
Cc1nc(N2CCN(Cc3nc4ccccc4[nH]3)CC2)c2oc3ccccc3c2n1	4	0	-6	3	0.7	4	1
COc1c(F)c(F)c(C(=O)Nc2cccc(Cl)c2N2CCOCC2)c(F)c1F	-2	8	0	-1	0.9	-1	-1
CSc1nc(Oc2ccccc2)c2sccc2n1	-4	8	-3	0	-2.5	-5	0
COc1ccc(C(=O)Nc2ccccc2C(=O)Nc2ccc(C(=O)O)cc2)cc1	5	-1	-14	1	2.0	6	2

11 structures out of the list, arranged by length of the SMILES, descending.
SMILES	BCLXL inh	GLD-1 RNA inh	PME-1 inh	AHR act	MEX-5 binding	MCL1-BIM inh	Fam108B inh
O=C(Nc1cccc(C(F)(F)F)c1)NC1CCN(S(=O)(=O)c2ccc(F)cc2)CC1	3	6	-7	3	1.3	-2	4
Cc1cccc(S(=O)(=O)NCCC(=O)OC(C)C(=O)NC(=O)NC2CCCCC2)c1 (configuration not stated)	4	2	1	2	0.4	-2	-2
CCC/C(O)=C1\C(=O)CC(C)(C)CC1=Nc1cccc([N+](=O)[O-])c1	0	-7	-2	0	-2.0	-4	-1
O=C(Cn1c(=O)n(Cc2ccco2)c(=O)c2ccccc21)Nc1cccc(Cl)c1	2	4	-15	2	-0.8	-3	-6
Cc1ccccc1Cn1c(=O)n(Cc2ccco2)c(=O)c2ccccc21	7	2	1	-2	1.2	19	-4
CC(C)Cn1c(NCCN(C)C)nc2c1c(=O)[nH]c(=O)n2C	3	4	-1	-6	-0.3	-1	-1
O=S(=O)(/C=C/c1ccccc1)N1CCN(c2ccccc2)CC1	9	0	1	4	-1.5	5	0
c1cncc(CNc2cccc(-c3nc4ccccc4[nH]3)c2)c1	0	2	9	167*	-0.9	2	2
CCC(=O)Nc1ccc(-c2nn3c(C)nnc3s2)cc1C	4	-7	-2	54*	1.5	4	3
C1CN(c2nc3nonc3n3nnnc23)CCO1	4	7	3	-2	-2.0	2	-3
CCOCCCNC(=O)c1ccccc1Br	-3	-1	-3	12	0.7	0	5

Next section.
SMILES	BCLXL inh	GLD-1 RNA inh	PME-1 inh	AHR act	MEX-5 binding	MCL1-BIM inh	Fam108B inh
O=C(O)c1cccc(NS(=O)(=O)c2cccc3cccnc23)c1	4	2	-5	1	0.9	2	-1
Cc1ccc(NCc2nnc(SCC(=O)NCc3ccco3)n2CC2CCCO2)c(C)c1 (configuration not stated)	2	1	5	9	-3.2	0	16
COc1cccc(C(=O)N2CCN(Cc3ccccc3Br)CC2)c1	4	-5	8	-2	2.1	3	-1
Cc1ccc(S(=O)(=O)Nc2cnn(-c3ccccc3)c(=O)c2Cl)cc1	4	5	-3	-1	1.6	0	0
Cc1ccc(S(=O)(=O)NC2(C(F)(F)F)C(=O)Nc3c2c(=O)[nH]c(=O)n3-c2ccccc2)cc1 (configuration not stated)	5	2	5	0	-0.1	-1	6
CN(C)c1nc(Nn2cnnc2)nc(N(C)C)n1	-1	1	-3	0	1.6	0	2
COc1ccc(Nc2nc(CC(C)=O)ns2)cc1OC	6	3	-2	7	2.8	6	-5
Cc1ccc(C(=O)OCC(=O)Nc2cccc(S(=O)(=O)NC3=NCCCCC3)c2)c(C)c1	4	-2	-5	2	1.1	-3	-2
Cc1ccc(S(=O)(=O)NCC(=O)OCC(=O)Nc2cccc(S(=O)(=O)NC3=NCCCCC3)c2)cc1	1	1	2	-1	1.3	2	2
NC(=O)c1ccc(S(=O)(=O)N2CCSCC2)cc1	5	-4	-4	1	0.5	21	5
O=c1[nH]n(CC2COC3(CCCCC3)O2)c(=O)c2ccccc12 (configuration not stated)	4	3	-2	1	1.4	-1	4
O=C(NC1CCCCCCC1)c1cnccn1	-3	5	-3	10	1.9	-1	0
COc1ccc(OC)c(NC(=O)CSc2nnc(N)s2)c1	2	2	-5	1	-1.8	-2	0
COc1ccc(CC(=O)c2ccccc2C(=O)O)cc1	-1	-3	-4	2	3.7	-4	1
CCc1nc(N2CCCCC2)c2oc3ccccc3c2n1	-3	5	-4	43	2.5	-10	2
Cc1ccc(-c2cc(C(=O)Nc3ccc4c(c3)OCCO4)c3ccccc3n2)cc1	0	7	-14	2	0.1	-2	-11
O=C(NCc1ccccc1)c1ccc(COCC(F)(F)F)o1	7	2	0	-2	0.0	8	1
Cc1ccc(C(=O)OCC(=O)NCc2ccco2)s1	4	4	2	2	-2.4	27	-3
CCC(NS(=O)(=O)c1ccc2c(c1)NC(=O)C(C)C(=O)N2)c1cccs1 (configuration not stated)	6	4	3	1	-1.0	2	1
Cc1ccc2oc(=O)cc(CN3CCOCC3)c2c1	7	3	-4	-2	2.4	7	3
O=C(COc1ccc(S(=O)(=O)NCc2ccccc2)cc1Cl)N1CCOCC1	6	5	2	-2	1.7	4	2
CC(=O)Nc1cccc(C(=O)Nc2ccccc2C(=O)O)c1	3	-4	-9	4	-0.8	5	4
COc1ccc(OC(=O)c2cccnc2)cc1	3	3	2	2	-2.3	4	4
O=C(Nc1ccccc1C(=O)O)c1cccc(C(=O)Nc2ccccc2C(=O)O)c1	12	-4	-11	1	1.3	5	-3
CC(=O)Nc1ccc(S(=O)(=O)Nc2cccc(C(=O)Nc3ccccc3C(=O)O)c2)cc1	13	8	-5	0	1.7	11	-6
Later entries
SMILES	BCLXL inh	GLD-1 RNA inh	PME-1 inh	AHR act	MEX-5 binding	MCL1-BIM inh	Fam108B inh
CCOC(=O)[C@@H](C)NS(=O)(=O)N(Cc1ccccc1)[C@H](C(=O)OC)C(C)C	5	4	-7	-1	.	2	.
C=CCn1c(SCC(=O)Nc2ccccc2F)nnc1C(C)NC(=O)c1ccccc1F (configuration not stated)	-2	-6	5	-2	-3.9	0	0
O=C(Nc1ccccc1C(=O)O)c1cccc(NS(=O)(=O)c2ccc(Br)cc2)c1	8	-2	-7	1	-2.4	4	-4
CC[C@H](C)[C@H](NC(N)=O)C(=O)Nc1ccc2c(c1)OCO2	8	-2	-2	7	-0.5	9	7
CCCCc1nc(SCC(=O)Nc2cc(C)on2)n[nH]1	5	3	0	0	0.4	4	1
O=S(=O)(Nc1ccc(-c2nc3cccnc3s2)cc1)c1cccs1	3	7	0	95*	-5.0	0	1
CCCN(CCC)CCSc1nc(O)c(C(C)C)c(=O)[nH]1	1	3	-3	-2	-3.1	0	3
Cc1nnc(NC(=O)CSc2nnc(CCNC(=O)c3ccccc3F)n2C)s1	1	2	-2	0	-2.0	-4	-1
CN(CC(=O)Nc1ccc(Cl)c(C(F)(F)F)c1)C(=O)c1cccnc1Sc1ccccc1	-3	10	-7	8	0.8	-29	-4
CC(C)Cc1c(O)nc(SCCN2CCOCC2)[nH]c1=O	2	8	0	1	-0.6	3	0
COc1ccc(NS(=O)(=O)c2cccc(C(=O)NNC(=O)c3cc(C)oc3C)c2)cc1	-5	1	-6	13	1.6	-16	-6
Cc1c(C(=O)O)sc2c1c(=O)n(Cc1ccccc1)c(=O)n2C	5	-4	6	17	-0.5	3	2
CCOc1cc(-c2nc3cc(C)ccn3c2NCC2CCCO2)ccc1O (configuration not stated)	1	1	-2	8	-3.4	-8	0
CC(C)CCn1c(=O)c2ccccc2n2c(CN(C)Cc3ccccc3)nnc12	7	7	3	6	0.2	4	1
N#C/C(=C\c1ccc(Cl)cc1)c1nc(-c2ccco2)cs1	-16	-7	-5	7	-4.8	-47	-2
O=c1c2ccccc2n(Cc2ccc(Cl)cc2)c(=O)n1Cc1ccco1	4	-10	4	1	1.9	5	5
CC(NC(=O)OC(C)(C)C)C(=O)N1CCCC1C(=O)NC(Cc1ccccc1)C(N)=O (configuration not stated)	0	4	-4	-1	1.7	-2	0
O=C(CCc1ccccc1)NC(NC(=S)Nc1ccc(Cl)cc1)C(Cl)(Cl)Cl (configuration not stated)	10	-13	-22	9	-0.3	15	-20
COCCn1nnnc1C(c1cc2cccc(C)c2[nH]c1=O)N1CCN(c2ccccc2F)CC1 (configuration not stated)	9	2	1	8	-3.0	10	-2
O=C(Cc1ccccc1)NC1CCN(S(=O)(=O)c2cccc(F)c2)CC1	2	-2	5	-5	-0.3	8	1
O=C(NC1(C(F)(F)F)C(=O)Nc2c1c(=O)[nH]c(=O)n2-c1ccc(F)cc1)c1cccnc1 (configuration not stated)	2	8	9	0	-0.7	6	1
CC(NS(=O)(=O)c1ccc(OCC(=O)N2CCOCC2)c(Cl)c1)c1ccccc1 (configuration not stated)	0	-1	1	-3	1.0	-8	2
O=C(Cc1ccccc1[N+](=O)[O-])Nc1cccc(S(=O)(=O)NC2=NCCCCC2)c1	8	8	3	1	-1.5	0	1
O=C(C1CCCN(CCCc2ccccc2)C1)N1CCCCC1 (configuration not stated)	5	-3	-9	1	0.8	16	1
O=C(c1ccccc1F)N1CCC(N2CCCCCC2)CC1	5	5	-3	1	-1.9	3	0
CCC(C)C(NC(N)=O)C(=O)Nc1ccc(C(=O)OC)cc1 (configuration not stated)	1	1	-6	4	0.4	-6	-4
CCN(CC)C(=O)CSc1nnc(-c2cc3ccccc3cc2O)n1CC	-1	-6	-3	6	-1.7	5	4
CC1=CC(C)(C)Nc2ccc(OC(=O)c3ccco3)cc21	9	1	2	-7	-1.2	12	3
